Source: PubChem BioAssay
CtBP-E1A inh – qHTS Assay for Inhibitors of the CtBP/E1A Interaction. CtBP / adenovirus E1A interaction (AlphaScreen). AlphaScreen GST-E1A/His-CtBP binding, 1536-well; stronger effect = lower value; control for the full effect not named in the record. activity change, % (no concentration beside the values). 0.49% of 340,000 active. AID 651724, 2012; in the data active means activity change below about -65%; inconclusive means about -30% to -65%; inactive means above about -30%; further: on the % scale 0 is the no-effect control and ±100 the full control effect; compound concentration not given in the record
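Steps: dispense buffer (Tris pH 8.0, NaCl 300 mM, TCEP 1 mM, BSA, Tween 20); add 5X protein mix (GST-E1A, His-CtBP, 125 nM each); pin 23 nL compound; 2 h at 37 °C, dark; add 5X beads (50 ug/mL); 1 h; read.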
D2 PAM – Beta-Arrestin HTS for Positive Allosteric Modulators of the Human D2 Dopamine Receptor: Potentiators; D(2) dopamine receptor (Homo sapiens), P14416; potentiation, % (test concentration not listed); 0.23% of 360,000 active; DiscoveRx D2 beta-arrestin cells, luminescence, 90 min; 100% = 57 uM dopamine signal; active = potentiation of 50% or more; inconclusive = 30% to 50%; inactive = 30% or less;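 further: compound concentration not given in the record; tested on top of an EC20 dose of dopamine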
Target sequence (P14416 whole entry, looked up): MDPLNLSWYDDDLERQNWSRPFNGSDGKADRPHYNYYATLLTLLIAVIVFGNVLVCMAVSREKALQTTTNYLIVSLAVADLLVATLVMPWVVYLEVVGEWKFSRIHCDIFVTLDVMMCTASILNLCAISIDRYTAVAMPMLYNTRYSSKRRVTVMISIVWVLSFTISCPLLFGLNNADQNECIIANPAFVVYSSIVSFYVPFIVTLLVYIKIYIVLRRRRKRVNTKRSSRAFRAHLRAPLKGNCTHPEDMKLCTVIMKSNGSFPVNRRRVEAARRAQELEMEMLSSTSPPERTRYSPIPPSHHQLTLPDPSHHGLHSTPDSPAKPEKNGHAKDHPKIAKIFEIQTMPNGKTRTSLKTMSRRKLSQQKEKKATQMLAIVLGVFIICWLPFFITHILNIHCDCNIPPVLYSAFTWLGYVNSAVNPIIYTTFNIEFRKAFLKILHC
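PathHunter D2 cells, attached overnight at 37 deg C, received compound in DMSO plus dopamine at EC20 (50 nM final) for 90 min at 37 deg C. Beta-arrestin recruitment was read as luminescence after 1 h with detection reagent at ambient temperature.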
TRPV1 potentiator – HTS Assay for Compounds that Act as Potentiators of the Vanilloid Receptor 1 | Transient receptor potential cation channel subfamily V member 1 (Homo sapiens), Q8NER1 | TRPV1-expressing cells, Fluo-8 calcium influx, capsaicin EC20 potentiation; host cell line not named in the record; control for the full effect not named in the record | potentiation, % at 8.33 µM | 0.02% of 320,000 active; active means potentiation above 80%; inconclusive means 30% to 80%; inactive means below 30%; further: 0% is about no effect
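TRPV1-expressing cells were cultured overnight at 35.5C and loaded with Fluo-8 calcium dye for 40 to 90 min at room temperature. After a 10 s baseline, compound was added and calcium influx was read kinetically for 3 min (ex 480/em 520 nm).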
Six1-Eya2 inh – qHTS Assay for Inhibitors of the Six1/Eya2 Interaction | Homeobox protein SIX1 (Homo sapiens) + Protein phosphatase EYA2 (Homo sapiens), … | AID 651725, 2012 | AlphaScreen GST-Six1/His-Eya2 binding, biochemical; stronger effect = lower value; control for the full effect not named in the record | 0.56% of 360,000 active | activity change, % (no concentration beside the values); in the data active = activity change below about -65%; inconclusive = about -30% to -65%; inactive = above about -30%; further: on the % scale 0 is the no-effect control and ±100 the full control effect; compound concentration not given in the record
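AlphaScreen with GST-Six1 and His-Eya2 (5X mix: 250 nM and 500 nM), glutathione donor and nickel acceptor beads; buffer 50 mM Tris pH 8.0, 300 mM NaCl, 1 mM TCEP; 1 h at 37 C in the dark.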
PINK1 modulator – A Quantitative High throughput Screen to Identify Chemical Modulators of PINK1 Expression | Potency, µM (doses to about 76.6 µM), without a hit: at the top dose activation (PINK1 increase), usual class: activators | AID 624263, 2012 | 0.2% of 410,000 active | PINK1 immunofluorescence, high-content cytometry, 24 h; active = well fitted activation curve with a large enough effect; inconclusive = small, poorly fitted or top-dose-only effect; inactive = flat fitted curve, though single readings scatter; cell line not stated here;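 further: potency means the concentration at half of the fitted maximal effect; % of control where 0% means no effect; nearly all actives have a fitted effect of over 65% in size; a mitochondrial uncoupler was the plate control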
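Stable cell line, 250 cells/well, 12 h attachment; compounds pinned at 5 concentrations, 24 h; CCCP control. Fixed with nuclear dye, primary antibodies 12 h at 10 degrees C, secondary plus cell stain; laser-scanning cytometer read.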
D2 agonist – Beta-Arrestin HTS for Positive Allosteric Modulators of the Human D2 Dopamine Receptor: Agonists; DiscoveRx PathHunter D2 beta-arrestin, luminescence, 90 min; 100% = 57 uM dopamine signal; activation, % (no concentration beside the values); 0.084% of 360,000 active; in the data active = activation above about 40%; inconclusive = about 15% to 40%; inactive = below about 15%; further: compound concentration not given in the record; the text of the record calls up to 30% inactive
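DiscoveRx PathHunter D2 beta-arrestin cells (2,100/well) attached overnight, then compound-stimulated 90 min at 37 C in HBSS/10 mM HEPES/0.1% Tween-20 buffer; beta-galactosidase complementation read by luminescence after 1 h at ambient temperature. Dopamine 57 uM final (EC100) as control.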
Sfp inh – qHTS Assay for Inhibitors of Bacillus subtilis Sfp phosphopantetheinyl transferase (PPTase). AID 1490, 2009. 3.5% of 310,000 active. 4'-phosphopantetheinyl transferase ffp (Bacillus subtilis), Q9F4F7. Potency, µM, inactives show max response, negative = inhibition, hits mostly inhibitors. Biochemical Sfp PPTase activity, qHTS; active means well fitted inhibition curve with a large enough effect; inconclusive means small, poorly fitted or top-dose-only effect, or another doubt; inactive means no such curve, though single readings can be large or run the other way;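 further: the enzyme is Sfp with the accession as filed and its product quenches rhodamine fluorescence; potency means the concentration at half of the fitted maximal effect; 0% = enzyme reaction without inhibitor and -100% = no enzyme wells; top concentration of the series not given in the record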
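Step 1, compound plus 15 nM Sfp-PPTase, 15 min, room temperature. Step 2, add rhodamine-CoA (5 uM) and BHQ-2-YbbR (12.5 uM). Step 3, read 525/598 nm fluorescence at 0 and 30 min.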
The depositor's hits bear a star; ? = inconclusive; . = not tested or not shown; & = joins results of further samples; [ ] = dose if it differs, or a comment.

structure	TRPV1 potentiator	D2 PAM	CtBP-E1A inh	Sfp inh	PINK1 modulator	Six1-Eya2 inh	D2 agonist
Cc1nnc(C)c2c(C)n(-c3ccccc3)c(C)c12	15	-14	-14	-4%	-1.0%	-2	-1.1
Cc1c2c(nc3c(C(=O)NC4CCCC4)cnn13)CCCC2	-25	6	-5	1%	9.2%[38.3 µM]	2	-0.7
CN1CCC(N(C)CC(=O)Nc2ccccc2N2CCOCC2)CC1	-5	1	4	?	0.8%	-3	-6.6
CC(C)NC(=O)CC(=O)N/N=C/c1ccc(Br)cc1	19	7	-9	6%	.	-2	-0.9
COc1cc2cc(CCOC(=O)c3ccc(F)cc3)oc(=O)c2cc1OC	5	-2	-8	.	6.4%	-7	-0.7
CC(=C1C(=O)c2ccccc2C1=O)N1CCC(C(N)=O)(N2CCCCC2)CC1	7	7	4	-12%	1.1%[38.3 µM]	0	0.3
OC[C@@H]1CN(CCNc2ccccc2)C[C@H](n2cnc3c(NCc4ccncc4)ncnc32)O1	.	2	-18	.	2.3%	2	3.8
CC(=O)Nc1cc(C(=O)O)ccc1S(=O)(=O)c1ccc(C)cc1	2	-7	3	1%	4.6%[38.3 µM]	5	-2.4
CC(C)(C)[C@@H]1CCC(=O)N(CC[C@H](N=[N+]=[N-])c2ccccc2)CC1	-9	-10	7	4%	1.2%	6	1.3
CCOc1ccc(S(=O)(=O)NCc2ccccc2Cl)cc1C(N)=O	-2	-8	-2	-15%	6.2%&0.5%	6	-3.1
CC[n+]1c(C)n(-c2ccccc2)c2ccc(NC(C)=O)cc21	10	-10	-2	?	-0.7%	5	-4.4
COc1cc(CC(=O)Nc2nc(-c3ccc(F)c(F)c3)cs2)cc(OC)c1OC	-17	12	0	1%	3.9%	-5	1.9
CCCSc1nc(C)c2cc(C)cc(C)c2n1	-2	18	23	-9%	0.4%	26	4.9
O=C(CSc1nc2ccccc2c(=O)n1CCCN1CCOCC1)Nc1ccc2c(c1)OCO2	10	-14	0	7%	-1.0%	-3	0.2
CC1CN(S(=O)(=O)c2ccc(NC(=O)CCN3C(=O)c4ccccc4C3=O)cc2)CC(C)O1 (centres undefined)	14	-16	-4	7%	0.8%	2	-0.3
CCC(=O)Nc1nnc(-c2ccco2)o1	-9	-7	-12	-6%	5.2%	-18	-2.2
O=C1CC2(CCCCC2)Oc2ccc(OCC(=O)N3CCOCC3)cc21	-12	-10	7	9%	-2.5%[38.3 µM]	1	-3.8
COc1ccc2c(c1)CCc1c(C(=O)NCc3ccc(Cl)cc3)noc1-2	12	2	2	?	8.9%	8	-3.7
CC(C)Nc1ccccc1	2	-17	0	.	1.1%	-3	4.0
CCc1cccc2c(C(=O)CSc3nnc(-c4ccncc4)n3C)c[nH]c12	1	-2	4	?	-0.2%	-3	2.6
O=C(COC(=O)CCCN1C(=O)c2cccc3cccc(c23)C1=O)Nc1cccc(C(F)(F)F)c1	0	-3	-24	2%	2.3%	-1	-5.6
COC(=O)c1sc(NC(=O)c2ccc(Cn3cc(Cl)cn3)o2)c(C#N)c1C	0	-35	-3	16µM*	0.5%	-2	-2.1
C=CCn1c(SCC(=O)Nc2ccccc2C)nc2sc(C)c(C)c2c1=O	-5	-3	4	-14%	16%	-5	-4.8
CCOc1ccccc1NC(=O)COC(=O)C1CC1	3	-6	-22	22%	-0.1%	11	-3.8
CN(C)S(=O)(=O)n1cc(/C=C(\NC(=O)c2ccccc2F)C(=O)N2CCCC2)c2ccccc21	21	-4	9	-1%	1.4%	4	-2.8
Oc1cccc(/C=N/N2CCN(c3ccccn3)CC2)c1	-9	-2	-4	5%	0.6%	-12	-4.3
COc1ccc(-c2nc(-c3cccc([N+](=O)[O-])c3O)cc(=O)o2)cc1OC	4	-7	-3	4%	11%	3	-0.7
CCOC(=O)C(/C=C(\C#N)C(=O)OCC)=C(/N)N1CCN(c2ccc(OC)cc2)CC1	2	-9	-1	7%	-2.1%	-6	-2.6
CN(C)S(=O)(=O)c1ccc(C(=O)Nc2ccc(CN3CCCC3)cc2)cc1	?	-6	0	-18%	4.1%	20	-1.3
COc1cccc(CN(CCC(=O)O)Cc2cccc(OC)c2)c1	.	-13	-12	.	0.0%	6	-4.0
CCOc1ccc(NC(=O)C2CCN(S(C)(=O)=O)CC2)cc1	1	-5	-24	7%	3.2%	0	-4.9
O=C1C(Cl)=C(N2CCOCC2)C(=O)N1c1cccc(Cl)c1	-20	-12	0	-5%	2.9%	?	2.0
COc1ccccc1-c1ccc2c(c1)C(C)(Cc1ccc(Cl)cc1)C(=O)N2 (centres undefined)	.	-6	10	.	0.5%	3	13
Cc1c(-n2cc(C(=O)c3cc(Br)ccc3O)cc(C#N)c2=O)c(=O)n(-c2ccccc2)n1C	10	-18	-10	11%	1.0%	-1	-2.0
CSc1nc2ccccc2c(=O)n1C1CCOC(C)(C)C1 (centres undefined)	-15	2	-2	-2%	-0.8%	0	?
Nc1nc(-c2ccco2)nn1C(=O)CCc1ccccc1	-2	-16	7	11%	1.5%	6	-2.3

Some of the entries so far, with two lines to a compound:
Every second line gives: TRPV1 potentiator, D2 PAM, CtBP-E1A inh, Sfp inh, PINK1 modulator, Six1-Eya2 inh, D2 agonist
CSc1nc2ccccc2c(=O)n1C1CCOC(C)(C)C1 (centres undefined)
    -15, 2, -2, -2%, -0.8%, 0, ?
Nc1nc(-c2ccco2)nn1C(=O)CCc1ccccc1
    -2, -16, 7, 11%, 1.5%, 6, -2.3

Additional entries
structure	TRPV1 potentiator	D2 PAM	CtBP-E1A inh	Sfp inh	PINK1 modulator	Six1-Eya2 inh	D2 agonist
CCC(C)n1[nH]c(=O)c2c(C)cc(C)nc21 (centres undefined)	?	-12	6	18%	-0.5%	-4	-1.3
Cc1cc(C(=O)CN2C(=O)NC3(CCCc4ccccc43)C2=O)c(C)n1Cc1ccccc1 (centres undefined)	2	-4	2	-6%	3.8%	-9	-3.1
COc1ccc(C(=O)C2CCCN(C(=O)c3c4c(nn3C)CCCC4)C2)cc1F (centres undefined)	15	-3	3	7%	2.4%	11	-3.2
O=C(NCCSCc1ccco1)Nc1ccc(Cl)cc1	-21	-30	-8	-6%	-0.1%	-4	2.9
CCOC(=O)c1[nH]c(C)c(/C(O)=C2\C(=O)C(=O)N(CCCN3CCOCC3)C2c2cccnc2)c1C (centres undefined)	13	-20	4	5%	-0.9%	0	-4.3
COC(=O)C1C2CCCCC1C(=O)O2 (centres undefined)	.	-9	0	.	1.5%	1	-1.9
C[C@H](CO)N1C[C@H](C)[C@@H](CN(C)CC2CCOCC2)Oc2cc(C#Cc3ccccc3F)ccc2S1(=O)=O	.	-4	-3	.	2.7%	-11	-8.0
O=C(COC(=O)CSCc1ccccc1)NCc1ccccc1	-23	-3	-2	26%	1.0%	4	-4.2
CN1C(=O)C2(N=c3ccccc3=N2)c2ccccc21	-8	-7	?	-3%	-2.3%	?	-2.3
O=C(CSc1nnnn1-c1ccc2c(c1)OCCO2)Nc1nc2c(s1)CCCC2	4	-11	1	-16%	.	-5	-1.2
Cc1ccsc1C(=O)Nc1cccc(-n2cnnn2)c1	-3	-4	.	11%	1.8%	17	-5.7
CCCCCCSc1cccc(-c2nc3cc(C)ccn3c2NC2CCCCC2)c1	0	-55	-1	.	?	6	-1.7
N#Cc1ccc(OCC(=O)NN2Cc3ccccc3C2=N)cc1	0	-20	0	3%	0.3%	7	-0.7
Cc1cc(C)c(CN2CCC(n3nccc3NC(=O)c3ccccc3Cl)CC2)cc1C	5	-46	-3	-1%	2.1%	4	-5.5
COc1cc2c(cc1OC)CN(CC(=O)Nc1ccc(F)cc1)C(C(=O)O)C2 (centres undefined)	-9	1	5	?	0.4%	-5	2.3
NS(=O)(=O)c1ccc(NC(=O)COC(=O)/C(=C/c2cccs2)c2cccs2)cc1	11	-12	-20	9%	3.4%	-10	2.6
CCOC(=O)NC(=S)Nc1ccc(C(C)(C)C)cc1Br	-3	-4	3	23%	?	-4	-4.2
COC(=O)c1ccccc1NC(=O)C1CCCN(S(=O)(=O)c2ccc(F)cc2)C1 (centres undefined)	-17	-12	0	-7%	0.2%	-11	-1.8
c1ccc(Sc2ncnc3ccccc23)cc1	-11	-5	0	11%	-2.3%	2	-0.2
O=C1C(=C2SCCCS2)CC/C1=C\c1ccc(F)cc1	1	-1	6	25%	6.7%	-2	-0.3
O=c1[nH]c(/C=C\c2ccccc2F)nc(O)c1[N+](=O)[O-]	-2	-5	-10	17%	0.3%	4	-6.4
CCC(C)NC(=O)c1ccccc1NC(=O)c1ccc(CSc2ccccc2)cc1 (centres undefined)	9	-20	5	-21%	11%	-7	2.9

Of the compounds above, 4 contain an NH in an aromatic ring:
structure	TRPV1 potentiator	D2 PAM	CtBP-E1A inh	Sfp inh	PINK1 modulator	Six1-Eya2 inh	D2 agonist
CCc1cccc2c(C(=O)CSc3nnc(-c4ccncc4)n3C)c[nH]c12	1	-2	4	?	-0.2%	-3	2.6
CCC(C)n1[nH]c(=O)c2c(C)cc(C)nc21 (centres undefined)	?	-12	6	18%	-0.5%	-4	-1.3
CCOC(=O)c1[nH]c(C)c(/C(O)=C2\C(=O)C(=O)N(CCCN3CCOCC3)C2c2cccnc2)c1C (centres undefined)	13	-20	4	5%	-0.9%	0	-4.3
O=c1[nH]c(/C=C\c2ccccc2F)nc(O)c1[N+](=O)[O-]	-2	-5	-10	17%	0.3%	4	-6.4
